Screening data deposited in PubChem BioAssay by Broad Institute.
rRNA inh HTS: reduced GFP signal of wild-type E. coli, primary screen, bacterial rRNA inhibitor project, GFP/RFP fluorescence, OD600, single point; E. coli WT GFP vs humanized-ribosome RFP mutants, 24 h; active compounds read low; DMSO median 0, no signal -100; GFP signal change (wild-type ribosome), % (test concentration not listed); hit rate 1.6% among 350,000; AID 720706, 2013;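 active = significant combined selectivity score with lowered wild-type GFP, culture density cut under 30%, mutant RFP and density less affected; inactive = any of these conditions unmet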; note: one replicate is shown; some compounds called inactive have numbers as strong as hits
AF4-AF9 inh: inhibitors of AF4 peptide binding to AF9, primary screen, biochemical, AlphaScreen, biotin-AF4 peptide, FLAG-AF9, single point | hit rate 0.47% among 350,000 | inhibition, % at 10 µM;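 active = every replicate reaching a set inhibition limit, whatever the replicate mean, cut at about 25% in these data; inconclusive = mean inhibition reaches that limit but some replicates miss it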;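 note: 0% = plate neutral control median and 100% = total signal loss; the record names both 10 and 1 µM as test concentration; the first replicate is given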
Target sequence (P42568 whole entry, looked up): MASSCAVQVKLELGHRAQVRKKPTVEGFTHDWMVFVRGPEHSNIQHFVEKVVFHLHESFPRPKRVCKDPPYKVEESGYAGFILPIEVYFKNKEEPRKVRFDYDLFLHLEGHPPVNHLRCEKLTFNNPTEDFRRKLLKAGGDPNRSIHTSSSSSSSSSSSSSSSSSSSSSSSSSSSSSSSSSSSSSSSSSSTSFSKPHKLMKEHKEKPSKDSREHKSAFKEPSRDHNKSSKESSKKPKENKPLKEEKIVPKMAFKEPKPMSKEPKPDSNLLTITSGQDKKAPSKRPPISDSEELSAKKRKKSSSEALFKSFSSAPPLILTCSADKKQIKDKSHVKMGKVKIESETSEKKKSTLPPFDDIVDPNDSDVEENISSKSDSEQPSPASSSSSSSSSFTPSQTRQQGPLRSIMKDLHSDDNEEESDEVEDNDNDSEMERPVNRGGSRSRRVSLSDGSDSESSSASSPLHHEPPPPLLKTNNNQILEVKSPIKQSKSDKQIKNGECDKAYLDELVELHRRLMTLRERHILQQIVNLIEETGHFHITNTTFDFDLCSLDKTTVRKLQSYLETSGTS
rRNA inh HTS OD600: further read-out of rRNA inh HTS, marked with its call; OD600 change, %; measured here: OD600 growth;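 optical density of the mix in the first replicate; 0 = DMSO median and -100 = no signal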
rRNA inh HTS RFP: further read-out of rRNA inh HTS, marked with its call; RFP signal change, %; measured here: RFP humanized mutant strains;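 first replicate; 0 = DMSO median and -100 = no signal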
An asterisk follows results filed as active; ? = inconclusive; & = joins results of further samples.

rRNA inh HTS	rRNA inh HTS OD600	rRNA inh HTS RFP	AF4-AF9 inh	Compound
-1.1	-2.2	-1.6	-2.8	O=C(c1ccccc1)N1CC2(C1)[C@@H](c1ccccc1)[C@H](CO)N2C(=O)CC1CC1
1.7	-2.6	-0.8	25.4*	C[C@@H]1CN([C@@H](C)CO)C(=O)c2cccc(NC(=O)Nc3ccc4c(c3)OCO4)c2O[C@@H]1CN(C)CC1CC1
2.9	4.4	-1.6	6.3	C[C@@H]1CCCCO[C@@H](CN(C)C)[C@@H](C)CN([C@@H](C)CO)C(=O)c2cc(N(C)C)ccc2O1
-18.9	-54.1	1.3	6.9	O=C(c1cccc(F)c1)N1CC[C@@H]2[C@H](CO)Nc3ccc(-c4ccccc4)cc3[C@@H]21
5.4&2.6	1.4&1.1	-2.8&0.8	4.2&3.8	Cc1ccc(-c2ccc(C3[C@H]4CNC[C@@H]3N4S(=O)(=O)c3cn(C)cn3)cc2)cc1 (some centres undefined)
-0.2	-3.0	-0.8	-1.4	C[C@H](CO)N1C[C@H](C)[C@@H](CN(C)C(=O)c2ccccc2)OCCCC[C@H](C)Oc2ccc(NC(=O)Nc3ccc4c(c3)OCO4)cc2C1=O
-2.0	7.2	1.6	?	COc1cccc(NC(=O)N[C@@H]2C=C[C@@H](CC(=O)N3CCCCC3)O[C@@H]2CO)c1
3.9	11.7	2.7	8.6	O=C(Cc1cccnc1)N1CC(=O)N2[C@H](C1)[C@H](c1ccc(C#CC3CCCC3)cc1)[C@@H]2CO
1.4	-4.0	-1.4	-12.2	CCCN1C[C@@H](C)[C@@H](OC)CN(C)C(=O)c2ccc(NC(=O)C3CCOCC3)cc2OC[C@H]1C
1.2	9.0	-5.2	4.4	C/C=C/c1ccc([C@H]2[C@@H](CO)N3C(=O)CN(Cc4ccc(C(=O)OC)cc4)C[C@H]23)cc1
-1.1	-12.9	-2.3	-2.5	O=C(Cc1ccccc1)N1CC(=O)N2[C@H](C1)[C@@H](c1ccc(Br)cc1)[C@@H]2CO
-35.5	-53.9	23.2	2.3	O=C(C1CCCCC1)N1CC(=O)N2[C@H](CO)[C@H](c3ccc(C#CCc4ccccc4)cc3)[C@H]2C1
-1.7	-1.0	-3.4	-1.3	COc1ccc(-c2ccc([C@@H]3[C@@H](CO)N4C(=O)CN(C(=O)c5ccccn5)C[C@H]34)cc2)cc1
0.3	6.6	-3.4	-0.6	Cc1cccc(-c2ccc([C@@H]3[C@H]4CN(C(=O)Cc5ccccn5)CC(=O)N4[C@H]3CO)cc2)c1
-0.5	-9.7	3.7	8.7	C/C=C/c1ccc([C@H]2[C@@H](CO)N(CCC)[C@@H]2CNC(=O)NC2CCCC2)cc1
-46.7	-72.3	7.4	-8.5	O=C(C1CCCC1)N1CC(=O)N2[C@H](CO)[C@H](c3ccc(C#Cc4cccc(F)c4)cc3)[C@@H]2C1
-2.2	-44.6	20.2	-1.9	O=C(Nc1ccccc1F)N1CC(=O)N2[C@H](C1)[C@H](c1ccc(C#Cc3ccc(F)cc3)cc1)[C@@H]2CO
2.7	7.5	-1.1	-3.9	CN(C)C(=O)C[C@H]1CC[C@H]2[C@@H](COc3ccc(NC(=O)C4CCC4)cc3C(=O)N2C)O1
-1.8	0.9	1.3	-3.8	CCCNC(=O)N1C[C@@H]2[C@H](c3ccccc31)[C@H](CO)N2Cc1cc(F)ccc1F
-0.5	-14.1	0.4	7.5	COc1cccc(-c2ccc3c(c2)[C@@H]2[C@@H](CCN2C(=O)C2CC2)[C@@H](CO)N3)c1
-6.4	-0.5	-2.1	3.6	COc1ccc2c3c(n(C)c2c1)[C@@H](CO)N(C(=O)CC1CC1)CC31CCN(Cc2nccs2)CC1
3.0	9.2	-1.6	-3.0	CC(C)NC(=O)N1CC2(C1)[C@H](c1ccccc1)[C@H](CO)N2C(=O)C1CCCC1
-0.4	2.5	-0.3	4.9	C[C@@H]1CN([C@H](C)CO)C(=O)c2cc(N(C)C)ccc2O[C@@H](C)CCCCO[C@H]1CN(C)S(=O)(=O)c1ccc(F)cc1
1.4	6.0	-3.3	1.7	O=C(Cc1ccncc1)Nc1ccc2c(c1)[C@H]1C[C@H](CC(=O)N3CCCCC3)O[C@@H](CO)[C@H]1O2
-0.7	10.9	-3.9	-2.1	O=C(NC1CCC1)[C@@H]1[C@@H](CO)[C@@H]2Cn3c(ccc(-c4ccccc4)c3=O)[C@H]1N2
-1.6	-8.9	1.8	6.6	C/C=C/c1ccc([C@H]2[C@@H](CO)N3C(=O)CN(Cc4ccc(C(=O)OC)cc4)C[C@@H]23)cc1
-0.1	4.0	2.3	0.4	CN1CCN(C(=O)c2cc3c(c(-c4cccc(Br)c4)n2)[C@H](CCO)N([S@@](=O)C(C)(C)C)C3)CC1
-2.8	0.7	-0.8	-10.3	C[C@@H]1CN([C@H](C)CO)C(=O)c2cc(NS(=O)(=O)c3ccccc3)ccc2O[C@@H](C)CCCCO[C@@H]1CN(C)S(=O)(=O)c1cccs1
2.8	5.5	-3.1	-3.1	CC(C)c1cn(CC[C@H]2CC[C@@H](NC(=O)C3CCOCC3)[C@@H](CO)O2)nn1
-0.8	4.9	-4.7	-0.7	C[C@H](CO)N1C[C@H](C)[C@@H](CN(C)Cc2cccnc2)Oc2ncc(-c3cccc(F)c3)cc2C1=O
2.6	-9.0	-3.8	-2.0	O=C(c1cccnc1)N1CC(=O)N2[C@@H](CO)[C@H](c3ccc(-c4cccnc4)cc3)[C@@H]2C1
-1.1	4.0	-3.8	22.1	COCC#Cc1ccc([C@H]2[C@H]3CN(C(=O)c4cccnc4)CC(=O)N3[C@H]2CO)cc1
-1.5	8.0	2.3	2.4	CCCN(C)C[C@@H]1OCCCC[C@@H](C)Oc2ccc(NC(=O)Cc3ccccc3)cc2C(=O)N([C@H](C)CO)C[C@@H]1C
-5.4	-35.0	24.1	-2.7	COc1ccc(C#Cc2ccc([C@@H]3[C@@H](CO)N4C(=O)CN(C(=O)c5cccnc5)C[C@@H]34)cc2)cc1
2.8	-14.1	0.6	8.5	CN(C)CC(=O)N1[C@H](CO)[C@H](c2ccccc2-c2ccc(C(=O)N(C)C)cc2)[C@@H]1C#N
-0.3	4.8	-2.4	-1.1	O=C(Cc1ccccc1)N1C[C@@H]2[C@H](c3ccccc31)[C@@H](CO)N2C(=O)C1CCOCC1
1.4	1.9	-1.9	0.5	C/C=C/c1ccc([C@H]2[C@@H](CO)N(C(=O)COC)[C@@H]2CNC(=O)C2CCC2)cc1
-1.3	-0.9	1.7	-2.2	COc1cccc(C#Cc2ccc([C@@H]3[C@H](CO)N4C(=O)CN(C(C)=O)C[C@@H]34)cc2)c1
1.9	7.1	0.5	-1.2	C[C@H](NC(=O)[C@@H]1[C@@H](CO)[C@@H]2Cn3c(cccc3=O)[C@@H]2N1C(=O)C1CC1)c1ccccc1
1.2	2.0	-1.5	-0.2	CCC(=O)Nc1ccc2c(c1)OC[C@H](C)N(C(=O)c1cnccn1)C[C@@H](C)[C@@H](OC)CN(C)C2=O

Part of the list above, with two lines to a compound:
Below each compound – rRNA inh HTS, rRNA inh HTS OD600, rRNA inh HTS RFP, AF4-AF9 inh
> O=C(Cc1ccncc1)Nc1ccc2c(c1)[C@H]1C[C@H](CC(=O)N3CCCCC3)O[C@@H](CO)[C@H]1O2
→ 1.4, 6.0, -3.3, 1.7
> O=C(NC1CCC1)[C@@H]1[C@@H](CO)[C@@H]2Cn3c(ccc(-c4ccccc4)c3=O)[C@H]1N2
→ -0.7, 10.9, -3.9, -2.1

Returning to the listing, starting 2 compounds before the break.
rRNA inh HTS	rRNA inh HTS OD600	rRNA inh HTS RFP	AF4-AF9 inh	Compound
1.9	7.1	0.5	-1.2	C[C@H](NC(=O)[C@@H]1[C@@H](CO)[C@@H]2Cn3c(cccc3=O)[C@@H]2N1C(=O)C1CC1)c1ccccc1
1.2	2.0	-1.5	-0.2	CCC(=O)Nc1ccc2c(c1)OC[C@H](C)N(C(=O)c1cnccn1)C[C@@H](C)[C@@H](OC)CN(C)C2=O
3.2	4.0	0.7	-0.6	O=C(C[C@H]1CC[C@H]2[C@@H](COC[C@@H](O)CN2CC2CCOCC2)O1)NCC1CCCCC1
-4.6&0.9	5.5&0.1	9.5&2.6	-0.1&4.4	COc1ccc(-c2ccc(C3[C@H]4CNC[C@@H]3N4C(=O)Nc3cccc(OC)c3)cc2)cc1 (some centres undefined)
6.5	17.1	-5.1	-1.3	C/C=C/c1ccc([C@H]2[C@@H](CO)N3C(=O)CN(C(=O)c4cnccn4)C[C@@H]23)cc1
1.0	-2.0	-1.0	1.7	Cc1ccc(S(=O)(=O)Nc2ccc3c(c2)C(=O)N([C@H](C)CO)C[C@H](C)[C@@H](CN(C)Cc2ccc(Cl)c(Cl)c2)OCCCC[C@@H](C)O3)cc1
1.2	1.7	0.7	-4.8	COc1ccc2c3c(n(C)c2c1)[C@H](CO)N(C(C)=O)CC31CCN(C(=O)C2CCOCC2)CC1
0.8	3.6	1.3	-4.4	O=C(C[C@@H]1C=C[C@H](NC(=O)C2CCOCC2)[C@H](CO)O1)Nc1nccs1
-0.1	27.0	0.0	-1.6	O=C(Nc1ccccc1)N1CC(=O)N2[C@H](C1)[C@H](c1ccc(C#Cc3cccnc3)cc1)[C@@H]2CO
5.9	8.9	1.1	1.1	CC=Cc1ccc2n(c1=O)C[C@H]1[C@H](CO)[C@@H](C(=O)NCC(F)(F)F)[C@@H]2N1C(=O)C1CCC1 (mixture of isomers)
-2.9	-8.2	-1.2	4.3	CCS(=O)(=O)N1CC2(CN(Cc3cc(F)ccc3F)[C@@H](CO)c3c2c2ccc(OC)cc2n3C)C1
0.5	0.6	-0.8	-3.8	C[C@H]1CN([C@@H](C)CO)C(=O)c2c(c3ccccc3n2C)-c2ccccc2CO[C@@H]1CN(C)C(=O)NC1CCCCC1
-4.9	-10.9	-1.2	-1.2	CCC(=O)NC[C@@H]1[C@@H](c2ccc(-c3cccc(F)c3)cc2)[C@@H](CO)N1CC1CC1
4.0	-2.1	8.0	-1.3	CCCC#Cc1ccc([C@H]2[C@H]3CN(C(=O)c4ccc(F)cc4)CC(=O)N3[C@H]2CO)cc1
1.5	-1.8	-3.0	-0.1	O=C1CNC[C@@H]2[C@@H](c3ccc(C4=CCCC4)cc3)[C@@H](CO)N12
4.5	8.7	-1.0	-4.5	O=C(O)C[C@@H]1C=C[C@H](NC(=O)CCN2CCCCC2)[C@H](CO)O1
-0.5	-0.4	2.8	-16.5	Cc1noc(C)c1NC(=O)N(C)C[C@H]1OCCCC[C@H](C)Oc2ccc(NS(=O)(=O)c3ccc(Cl)cc3)cc2C(=O)N([C@H](C)CO)C[C@@H]1C
11.1	10.5	0.5	-1.9	CN(C)C(=O)c1ccc(-c2ccccc2[C@H]2[C@H](C#N)N(C(=O)C3CCCC3)[C@H]2CO)cc1
-6.9	-4.5	1.0	-16.8	C[C@H](CO)N1C[C@H](C)[C@H](CN(C)Cc2ccc(C(F)(F)F)cc2)Oc2c(NC(=O)CCCCCC(=O)Nc3ccccc3N)cccc2C1=O
-2.2	0.1	1.0	0.4	O=C(NC[C@H]1N[C@H](CO)[C@@H]1c1ccc(C2=CCCC2)cc1)C1CC1
-2.1	-6.8	4.0	0.1	C[C@H]1CN([C@@H](C)CO)C(=O)Cc2cc(NC(=O)C3CC3)ccc2O[C@@H]1CN(C)Cc1ccc(C(F)(F)F)cc1
0.6	-7.3	6.7	1.6	COc1ccccc1CN1[C@@H]2CNC[C@H]1C2c1ccc(-c2ccc(C#N)cc2)cc1 (some centres undefined)
8.7	7.7	-1.4	-3.1	Cc1ccccc1S(=O)(=O)N1CC(=O)N2[C@H](CO)[C@H](c3ccc(C#CCC(C)C)cc3)[C@@H]2C1
5.7	13.2	0.8	-4.0	CCCC#Cc1ccc([C@H]2[C@@H](CO)N3C(=O)CN(C(=O)c4ccncc4)C[C@@H]23)cc1
-6.4	-17.3	11.7	5.9	C[C@H]1CN([C@@H](C)CO)C(=O)c2cc(NC(=O)CCCCCC(=O)Nc3ccccc3N)ccc2O[C@H]1CN(C)Cc1ccc(Oc2ccccc2)cc1
-2.6	-0.3	0.6	-21.2	O=C(Cc1ccccn1)N[C@H]1CC[C@H](CCn2cc(-c3ccc(F)cc3)nn2)O[C@H]1CO
-9.8	-11.9	2.3	5.5	CCc1nc(N2[C@@H](C#N)[C@@H](c3ccccc3-c3ccc(F)cc3)[C@@H]2CO)sc1C
4.3	18.5	-1.2	0.8	C[C@@H]1CN([C@H](C)CO)S(=O)(=O)c2ccc(C3=CCCCC3)cc2O[C@@H]1CN(C)S(=O)(=O)c1ccc(F)cc1

Not all compounds are listed; count on the stated rates, not on these rows.
